rRNA inh HTS = selective bacterial rRNA inhibition in E. coli; AID 720706; 1.6% of 350,000 active; GFP signal change (wild-type ribosome), % (no concentration beside the values); E. coli WT GFP vs humanized-ribosome RFP mutants, fluorescence, 24 h; stronger effect = lower value; DMSO median 0, no signal -100;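 active means significant combined selectivity score with lowered wild-type GFP, culture density cut under 30%, mutant RFP and density less affected; inactive means any of these conditions unmet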; further: one replicate is shown; some compounds called inactive have numbers as strong as hits
B2AR ag = activates human beta-2 adrenergic receptor causing internalization | P07550 | Am2.2-beta2AR cells, FAP receptor internalization, flow cytometry; reference of the scale not given here | response, % (concentration not given with the values) | 0.43% of 340,000 active;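 active means response above a set limit, near 3 SD of response in nonfluorescent compounds, cut at about 42% in these data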;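 further: stock transfer was 100 nL into about 11 µL; a reference agonist was the positive control; negative values mostly stem from fluorescent compounds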
Target sequence (P07550 whole entry, looked up): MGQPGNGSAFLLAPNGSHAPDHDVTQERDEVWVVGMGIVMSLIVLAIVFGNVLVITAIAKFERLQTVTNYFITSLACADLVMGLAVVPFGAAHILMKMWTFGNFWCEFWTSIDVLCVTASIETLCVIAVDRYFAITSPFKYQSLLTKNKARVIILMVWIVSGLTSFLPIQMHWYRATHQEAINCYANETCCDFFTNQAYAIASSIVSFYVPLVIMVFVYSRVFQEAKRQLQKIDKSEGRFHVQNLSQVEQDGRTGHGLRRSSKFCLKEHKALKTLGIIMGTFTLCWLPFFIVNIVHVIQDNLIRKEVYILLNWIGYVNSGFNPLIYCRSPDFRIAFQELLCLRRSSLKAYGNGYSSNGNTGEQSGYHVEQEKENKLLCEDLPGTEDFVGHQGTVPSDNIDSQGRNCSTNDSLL
rRNA inh HTS OD600 = also measured in rRNA inh HTS; calls as there; OD600 change, %; measured here: OD600 growth;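 optical density of the mix in the first replicate; 0 = DMSO median and -100 = no signal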
rRNA inh HTS RFP = further read-out of rRNA inh HTS, marked with its call; RFP signal change, %; measured here: RFP humanized mutant strains;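 first replicate; 0 = DMSO median and -100 = no signal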
* = called active by the depositor; x = not tested or not shown; & = joins results of further samples. An excerpt; rates above refer to the full screens.

nr	Structure	rRNA inh HTS	rRNA inh HTS OD600	rRNA inh HTS RFP	B2AR ag
1	CCC(c1nnnn1-c1ccc2c(c1)OCCO2)N1CCC2(CC1)C(=O)NCN2c1ccccc1 (stereo unspecified)	-34	-34	-2.5	x
2	Cc1ccc(OC(=O)N(C)C[C@@H]2OCc3cnnn3CCCC(=O)N([C@@H](C)CO)C[C@H]2C)cc1	15&0	12&1	1.4&-1.8	x
3	COc1cccc(-c2ccc3n(c2=O)C[C@H]2[C@H](CO)[C@@H](C(=O)O)[C@@H]3N2C(=O)c2cnccn2)c1	3	3	-1.4	x
4	Cc1cccc(S(=O)(=O)N2[C@@H]3Cn4c(ccc(-c5ccncc5)c4=O)[C@H]2[C@@H](C(=O)O)[C@@H]3CO)c1	4	0	-1.9	x
5	CCOC(=O)C12C(=O)OCC1C2c1ccccc1 (stereo unspecified)	-4.1*	15*	-5.9*	x
6	COC(=O)[C@@H]1[C@@H](CO)[C@@H]2Cn3c(ccc(-c4cccc(OC)c4)c3=O)[C@H]1N2C(=O)c1cnccn1	-2	4	1.2	x
7	COC(=O)[C@H]1[C@H](CO)[C@H]2Cn3c(ccc(-c4ccc(OC)cc4)c3=O)[C@@H]1N2C(=O)c1ccccc1F	-1	-1	2.9	x
8	O=C(Cc1ccccc1)N1CC2(C1)[C@H](c1ccccc1)[C@@H](CO)N2Cc1cccc(F)c1	-5	-12	-0.2	x
9	c1ccc(C2(NC3=NCCO3)CCCCC2)cc1	-6	-19	4.0	x
10	Cc1cccc(C)c1-n1nnnc1C(c1ccnc2ccccc12)N1CCC2(CC1)C(=O)NCN2c1ccccc1 (stereo unspecified)	18	17	3.0	x
11	Cc1ccc(C(O)(C(=O)OC(C)C)C(O)c2ccccc2)cc1 (stereo unspecified)	-4	-8	-6.7	x
12	CCOC(=O)[C@]12Cc3cc(OC)ccc3[C@H]1N(CC(=O)OC)C(=O)c1cc(OC)ccc12	-10	-22	1.4	x
13	c1ccc(N2[C@@H]3CC[C@H]2c2ccccc2C3)cc1	2	2	4.4	x
14	COc1ccc(C2C3C=CC(C3)C2C(=O)O)cc1 (stereo unspecified)	-1	5	-2.6	x
15	O=C(Cc1ccccc1)N1CCCCN2[C@H](CO)[C@@H](c3ccc(C#Cc4ccccc4)cc3)[C@@H]2C1	-1	-19	18	x
16	O=NN(CCF)C(=O)NC1CCC(=O)NC1=O (stereo unspecified)	14	20	-2.0	x
17	N#Cc1ccc(NC(=S)N2Cc3cc(Br)ccc3-n3nncc3C2)cc1	-29	-32	-3.9	x
18	O=C(Cc1ccccn1)N1CCCCN2[C@H](CO)[C@@H](c3ccc(-c4ccccc4)cc3)[C@H]2C1	8	5	0.6	x
19	C[C@@H]1CN([C@H](C)CO)C(=O)CCCn2cc(nn2)CO[C@@H]1CN(C)C(=O)Oc1cccc2ccccc12	-3	-5	-0.8	x
20	O=C(Cc1ccncc1)N1CCCCN2[C@H](CO)[C@H](c3ccc(-c4ccncc4)cc3)[C@@H]2C1	7	14	-2.3	x
21	CCC(=O)N1[C@@H]2c3ccc(-c4cccc(F)c4)c(=O)n3C[C@H]1[C@H](CO)[C@H]2C(=O)OC	0	-7	-1.2	x
22	CC(=O)N1Cc2cnnn2-c2ccccc2C1(C)C#N (stereo unspecified)	14	12	0.1	-5
23	CCC(C)C1NC(=O)C2CCCN2C(=O)C(CC(C)C)OC(=O)CCNC(=O)C(C)N(C)C(=O)C(C(C)C)N(C)C1=O (stereo unspecified)	10	20	0.5	1
24	c1ccc(C(c2ccccc2)c2cccnc2)cc1	-45	-58	-14	-1
25	CC12CCC(=O)C=C1CCC1C2CCC2(C)C(O)(C(=O)CO)CCC12O (stereo unspecified)	-2	-1	1.3	4
26	NC(Cc1ccccc1)c1nn[nH]n1 (stereo unspecified)	16	23	-4.6	-3
27	S=P1(Oc2ccccc2)Nc2ccccc2N1	13	9	6.3	0
28	Cc1ccc(NP(=O)(Oc2ccccc2)Oc2ccccc2)cc1	6	4	2.8	-7
29	NC1(C(=O)O)CCCc2ccc(N(CCCl)CCCl)cc21 (stereo unspecified)	0	7	4.2	1
30	CCC1([N+](=O)[O-])COP(N)(=O)OC1 (stereo unspecified)	13	13	0.6	3
31	CN1C2CCC1CC(OC(=O)c1cccc(O)c1)C2 (stereo unspecified)	13	17	8.0	-1
32	Cc1ccc(OP2(=O)Nc3cc(C)c(C)cc3S2)cc1 (stereo unspecified)	3	11	2.5	13
33	CCOC(=O)C1(c2ccccc2)CCN(CCc2ccc(NC(=O)CCC(=O)O)cc2)CC1	13	11	-0.9	-1
34	O=C1NC(=S)NC(=O)C1=Cc1c(Cl)cccc1Cl	10	13	-0.9	38
35	O=[N+]([O-])c1ccc(C(c2ccc([N+](=O)[O-])cc2)c2ccc([N+](=O)[O-])cc2)cc1	-34	-6	35	16
36	COC1C(C)OC(OC2CC(C)(O)Cc3cc4c(c(O)c32)C(=O)c2c(O)cc3c(c2C4=O)OC2OC3(C)C(O)C(N(C)C)C2O)C(OC)C1(C)OC (stereo unspecified)	52	29	42	-4
37	Oc1ccc2c3c1OC1c4[nH]c5ccccc5c4C[C@@]4(O)C(C2)N(CC2CC2)CC[C@]314 (stereo partly specified)	8	3	3.4	8
38	C[C@]12CCC(=O)C=C1C=CC1C2CC[C@@]2(C)C1CC[C@@H]2O (stereo partly specified)	-4	-14	-0.6	-2
39	CC1([N+](=O)[O-])COP(=O)(NC2CCCC2)OC1 (stereo unspecified)	5	11	1.1	-6
40	c1ccc(-c2ccncc2)cc1	11	16	3.2	-1
41	COC12CCC3(CC1C(C)(O)C(C)(C)C)[C@H]1Cc4ccc(OC5OC(C(=O)O)[C@@H](O)C(O)[C@H]5O)c5c4[C@@]3(CCN1CC1CC1)C2O5 (stereo partly specified)	1	8	1.0	-2
42	CC(=O)/C=C/c1ccccc1	6	5	11	-5
43	Cc1ccc2c(C)cccc2c1	4	7	1.6	0
44	Cc1ccc(N2C(=O)NC(=O)/C(=C/c3ccoc3)C2=O)cc1	25	15	24	4
45	CCC1CCC(C)N(N=O)C1 (stereo unspecified)	13	1	2.3	3

Grouped by structure: those above with an NH in an aromatic ring
nr	Structure	rRNA inh HTS	rRNA inh HTS OD600	rRNA inh HTS RFP	B2AR ag
26	NC(Cc1ccccc1)c1nn[nH]n1 (stereo unspecified)	16	23	-4.6	-3
37	Oc1ccc2c3c1OC1c4[nH]c5ccccc5c4C[C@@]4(O)C(C2)N(CC2CC2)CC[C@]314 (stereo partly specified)	8	3	3.4	8

Single records, from the list above.
`CC(=O)/C=C/c1ccccc1` across the screens: rRNA inh HTS: 6; rRNA inh HTS OD600: 5; rRNA inh HTS RFP: 11; B2AR ag: -5
`COC(=O)[C@H]1[C@H](CO)[C@H]2Cn3c(ccc(-c4ccc(OC)cc4)c3=O)[C@@H]1N2C(=O)c1ccccc1F` across the screens: rRNA inh HTS: -1; rRNA inh HTS OD600: -1; rRNA inh HTS RFP: 2.9; B2AR ag: x

(listing goes on)
nr	Structure	rRNA inh HTS	rRNA inh HTS OD600	rRNA inh HTS RFP	B2AR ag
46	CC12CCC(=O)CC1CCC1C2C(=O)CC2(C)C1CCC2(C)O (stereo unspecified)	5	-2	2.6	-9
47	C=CCN1CC[C@]23c4c5ccc(O)c4OC2C(O)C=CC3[C@H]1C5 (stereo partly specified)	2	5	-0.1	0
48	Cc1ccc(N2CCNCC2C)cc1 (stereo unspecified)	7	5	2.2	3
49	COc1cc(C2c3cc4c(c(O)c3CC3COC(=O)C32)OCO4)cc(OC)c1OC (stereo unspecified)	0	-7	-2.3	10
50	COc1ccc(CN2Cc3cnnn3-c3ccccc3C2C)cc1 (stereo unspecified)	-26	-17	-2.2	4
51	COc1ccc2c(c1)C(c1ccc(N(CCCl)CCCl)cc1)=NCC2	-58	-70	-16	14
52	CC(=O)N1Cc2cnnn2-c2ccccc2C1C#N (stereo unspecified)	15	12	1.8	-9
53	O=C(CCN1CC1)OCCOC(=O)CCN1CC1	10	7	1.9	55*
54	C[C@]12CCC3C(CC[C@@H]4[C@H]5O[C@H]5CC[C@]34C)C1CC[C@@H]2O (stereo partly specified)	-46	-63	5.4	-4
55	C#C[C@]1(O)CCC2C3CC=C4C[C@H](O)CC[C@]4(C)C3CC[C@@]21C (stereo partly specified)	-26	-34	-8.1	3
56	Cc1cc2c(cc1C)NP(=S)(c1ccccc1)N2	-3	9	3.6	1
57	NP(=O)(Oc1ccccc1)Oc1ccccc1	15	14	-0.8	2
58	CCC1(CCO)C(=O)NC(=S)NC1=O	28	22	2.7	2
59	N#Cc1ccc(C(=O)N2Cc3cnnn3-c3ccccc3C2C#N)cc1 (stereo unspecified)	5	8	-3.1	0
60	Cc1ccc(O)c(CN2CCC3CCC(C3)C2)c1 (stereo unspecified)	13	14	-1.3	-4

Some of the entries so far, as labelled records:
#46 CC12CCC(=O)CC1CCC1C2C(=O)CC2(C)C1CCC2(C)O (stereo unspecified)
  rRNA inh HTS: 5; rRNA inh HTS OD600: -2; rRNA inh HTS RFP: 2.6; B2AR ag: -9
#54 C[C@]12CCC3C(CC[C@@H]4[C@H]5O[C@H]5CC[C@]34C)C1CC[C@@H]2O (stereo partly specified)
  rRNA inh HTS: -46; rRNA inh HTS OD600: -63; rRNA inh HTS RFP: 5.4; B2AR ag: -4

Next section:
nr	Structure	rRNA inh HTS	rRNA inh HTS OD600	rRNA inh HTS RFP	B2AR ag
61	CC1CC=CCC12C(=O)NC(=S)NC2=O (stereo unspecified)	11	13	1.1	-226
62	c1cc(OCCN2CC2)ccn1	9	17	0.7	-16
63	c1cc2c(cc1NC1=NCCO1)CCCC2	7	12	0.3	-3
64	c1ccc(C(CN2CCCCC2)c2ccccc2)cc1	5	8	0.5	-6
65	CN(C)P(=O)(N(C)C)N1CC1	2	11	-5.5	0
66	Cc1ccc(S(=O)(=O)N2Cc3cnnn3-c3ccccc3C2C#N)cc1 (stereo unspecified)	10	3	3.6	-1
67	O=C1CCC[C@@H]2C[C@@]3(C[C@@H]4CCN1[C@H]24)Nc1cc(Cl)ccc1NC3=NCc1ccccc1	-8	-9	13	6
68	Cc1cccc(C(O)(C(=O)O)c2ccccc2)c1 (stereo unspecified)	7	14	-5.9	4
69	CCOC(=O)CC1c2ccccc2-n2nncc2CN1C (stereo unspecified)	6	18	-3.6	-3
70	O=C1NC(=O)C(=Cc2cccs2)C(=O)N1	18	5	1.0	11
71	O=C1NC(=O)C(=CCc2ccccc2)C(=O)N1	20	10	2.7	-2
72	CC(=O)O[C@H]1CCC2C3CC[C@H]4[C@@H](O)[C@H](O)CC[C@]4(C)C3CC[C@@]21C (stereo partly specified)	12	11	-1.4	-6
73	O=C1NC(=O)C(Cc2ccccc2)C(=O)N1	3	5	-3.2	-1
74	Cc1ccnc(NC(=O)CCCc2ccc(N(CCCl)CCCl)cc2)n1	19	17	-3.0	-1
75	O=C1CC=C2C3CC4N(CCC45c4cc(O)c(O)cc4N1C25)CC3=CCBr (stereo unspecified)	-11	5	1.5	8
76	CC1CCCN1CCC(C(N)=O)(c1ccccc1)c1ccccc1 (stereo unspecified)	6	1	2.8	1
77	CC1CC(C)CC(C)C(O)C(C#N)=CC=CCC(C2CCCC2C(=O)O)OC(=O)CC(O)C(C)C1 (stereo unspecified)	-49	-77	-18	13
78	c1cc2c(cc1N1CCCCC1)C1CC2CCN1 (stereo unspecified)	31	11	4.0	-1
79	CC1(C)NC(=S)C(C)(C)N1N=O	13	12	3.8	11
80	COc1cc2c(cc1OC)C13CCN4C=C5CCOC6CC(=O)N2C1C6C5CC43 (stereo unspecified)	9	8	-0.2	-1
81	CC12CCC(=O)C=C1CCC1C2C(O)CC2(C)C(O)CCC12 (stereo unspecified)	-11	-14	1.7	-10
82	O=C(O)C1C2c3ccccc3C(=O)C1(C(=O)O)c1ccccc12 (stereo unspecified)	11	7	-2.0	-1
83	CC(O)C1C=CC=CC(=O)OC2CC3OC4C5OC5(C)CCC4(COC(=O)C4OC4(C)C(O)CO1)C2(C)C31CO1 (stereo unspecified)	5	6	-3.1	4
84	O=C(NN=Cc1ccc(N(CCCl)CCCl)cc1Cl)c1cccnc1	3	-1	1.6	10
85	Oc1ccc(CCN2CCCCC2)cc1	13	9	0.8	0
86	O=P(Oc1ccc(Cl)cc1)(N1CC1)N1CC1	13	15	-0.8	-1
87	COC(=O)C1C2c3ccccc3C(c3ccccc32)C1(C)C(=O)OC (stereo unspecified)	-15	-28	-9.3	3
88	CC(C)CC1(CCc2ccccc2)C(=O)NC(=O)NC1=O	0	9	4.5	-8
89	CC[n+]1c(-c2ccccc2)c2cc(N)ccc2c2ccc(N)cc21	-33	-76	51	14
90	CCc1cccc(CC)c1N(COC)C(=O)CCl	16	10	0.4	6
91	CCN1C(=O)NC(=O)C2(CCCC2)C1=O	7	10	-1.5	2
92	O=C(OC1CC2CCC(N2)C1C(=O)O)c1ccccc1 (stereo unspecified)	9	5	3.4	-4
93	CCC1CN2CCc3cc(OC)c(OC)cc3C2CC1CC1NCCc2c1[nH]c1ccc(O)cc21 (stereo unspecified)	0	-10	5.0	7

5 compounds from above, limited to B2AR ag.
#	Molecule	B2AR ag
77	CC1CC(C)CC(C)C(O)C(C#N)=CC=CCC(C2CCCC2C(=O)O)OC(=O)CC(O)C(C)C1 (stereo unspecified)	13
78	c1cc2c(cc1N1CCCCC1)C1CC2CCN1 (stereo unspecified)	-1
79	CC1(C)NC(=S)C(C)(C)N1N=O	11
80	COc1cc2c(cc1OC)C13CCN4C=C5CCOC6CC(=O)N2C1C6C5CC43 (stereo unspecified)	-1
81	CC12CCC(=O)C=C1CCC1C2C(O)CC2(C)C(O)CCC12 (stereo unspecified)	-10
